From PubChem
CapD inh: inhibitors of Bacillus anthracis CapD enzyme; purified CapD enzyme, fluorescence intensity read-out; stronger effect = lower value; some hits fall short of the stated cut; z-score (test concentration not listed); 140,000 tested, 0.23% active; AID 492967;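 active = z-score under -4 in either of two replicates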;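 note: stock transfer was 100 nL into about 40 µL; score is relative to mean and spread of the plate; one replicate is shown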
AID504770: E. coli YBA685 growth inhibition, screen for V. cholerae RctB inhibitors; E. coli YBA685 rctB-dependent plasmid, OD600 growth, 3 h; stronger effect = lower value; z-score (no concentration beside the values); 130,000 tested, 0.27% active; AID 504770;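 active = z-score under -2 on both plates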;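 note: wells of about 30 µL received 100 nL stock; score is relative to mean and SD of the test wells; the first replicate is given; strong numbers were not always called active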
Numbers without * were called inactive; . = not tested or not shown; & = joins results of further samples.

SMILES	CapD inh	AID504770
COc1cccc(-c2nn(C)c3sc(C(=O)N4CCCCC4C)cc23)c1 (stereo not given)	3.6	-0.55
COC(=O)COc1ccc(/C=C2\C(=O)NC(=O)N(c3ccccc3)C2=O)cc1OC	0.68	.
CC(C)c1cc(C(=O)N/N=C/c2ccccc2)n[nH]1	-0.28	-0.55
COc1ccc(/C=N/NC(=O)c2cc(Cl)ccc2OC)cc1OC	0.49	.
CC(C)(C)N=Cc1c(O)n(-c2ccccc2Cl)c(=O)c2ccccc12	-0.7	-0.8
CSc1nc(C)nc(N/C=C(\C#N)C(=O)C2CC2)n1	-0.63	-0.35
COc1ccc2nc(-c3ccc([N+](=O)[O-])cc3)nc(-c3cccc([N+](=O)[O-])c3)c2c1	0.065	.
O=C(Cc1ccccc1)Nc1nc(-c2nc3ccccc3s2)cs1	7.7	0.25
Nc1ccc(-c2cnc(-c3ccc(N)cc3)nc2)cc1	55	-0.3
O=C(O)CC(c1ccccc1)N1C(=O)c2ccccc2C1=O (stereo not given)	-0.22	0.25
N#Cc1cc(C(=O)c2ccco2)c2nc3ccccc3n2c1N	.	-0.15
CC(C)c1ccc(/C=C2\CCC/C(=C\c3ccc(C(C)C)cc3)C2=O)cc1	0.095	.
Cc1ccc(C)c(NC(=O)CSc2nc3ccccc3o2)c1	0.29	.
O=c1oc(-c2cccs2)nc2cccc(F)c12	-0.69	0.15
O=C(O)C1=Cc2sc3c(c2CS1)CCCC3	2.4	-0.2
O=C(/C=C/c1cccs1)NCC(c1ccc(F)cc1)N1CCOCC1 (stereo not given)	-0.49	0.65
N=c1c(S(=O)(=O)c2ccccc2)cc2c(=O)n3ccccc3nc2n1Cc1cccnc1	.	-0.05
O=C(CCC(=O)N1CCN(C(=O)c2cccc(Cl)n2)CC1)NCc1ccc(Cl)cc1	-0.46	.
CS(=O)(=O)Nc1ccc2c(c1)OCCO2	-0.3&-0.61	-0.45&1.6
CC1(C)OC(=O)N(CCN2C(=O)OC(C)(C)C2(C)O)C1(C)O (stereo not given)	-0.29	.
O=C(Nc1sc2c(c1-c1nc3ccccc3s1)CCCC2)C1=COCCO1	.	0.7
Cc1cc(S(=O)(=O)NN)c(C)cc1Cl	-0.02	.
COc1cc(/C=C2/C(=O)N(c3ccccc3)N=C2C)ccc1OS(=O)(=O)c1ccccc1[N+](=O)[O-]	0.33	.
O=C(NCCN1CCCC1)c1n[nH]c(=O)c2ccccc12	0.005	-1.1
NC(=O)c1ccc(Oc2ncc(C(F)(F)F)cc2Cl)cc1	-0.59	-0.4

Overlap with the part before: two compounds; new compounds follow.
SMILES	CapD inh	AID504770
O=C(NCCN1CCCC1)c1n[nH]c(=O)c2ccccc12	0.005	-1.1
NC(=O)c1ccc(Oc2ncc(C(F)(F)F)cc2Cl)cc1	-0.59	-0.4
CC1Sc2nnc(Cc3ccc(Br)cc3)n2N=C1c1ccc(NS(C)(=O)=O)cc1 (stereo not given)	.	-0.45
COCc1cc(=O)[nH]c(-c2csc(C)n2)n1	-0.06	-0.55
N#Cc1cc2cc3c(cc2nc1N1CCCN(C(=O)c2ccccc2)CC1)OCO3	.	-0.5
Cn1nc(-c2ccc(Cl)cc2)c2cc(C(=O)NCc3ccccn3)sc21	-0.18	0.55
CNc1nc(Oc2ccc(=O)n(C)n2)nc(SC)n1	0.22	0
Cc1cc(Br)ccc1N1C(=O)/C(=C/c2ccc([N+](=O)[O-])cc2)C=C1c1ccccc1	-0.45	.
Cc1ccccc1Cn1cnc2ccccc21	.	-0.9
CCOC(=O)CN(C)c1nc(-c2ccc(OC)c(OC)c2)cs1	-0.35	-0.1
O=C(c1ccc(Cl)cc1)N(c1ccccn1)C1CCCCC1	.	-0.9
Cc1ccc(NC(=O)CSc2nc3ccccc3c(=O)n2C2CCCC2)cc1	-0.72	-0.55
CCCCCOC(=O)CSc1nc(N)c2c3c(sc2n1)COC(C)(C)C3	0.56	.
CCCCN(C)S(=O)(=O)c1ccc(C(=O)Nc2sccc2C#N)cc1	-0.04	-0.15
O=C(N/N=C/C=C/c1ccco1)c1ccccc1F	.	-2
O=c1[nH]c2ncccc2c(=O)n1Cc1ccccc1	-1	1
CC(=O)Nc1ccc(NC(=O)CSC2=C(C#N)C(c3ccc4c(c3)OCO4)C3=C(CCCC3=O)N2)cc1 (stereo not given)	0.43	.
O=C1C2C3C=CC(C3)C2C(=O)N1c1ccc(Oc2ccc(N3C(=O)C4C5C=CC(C5)C4C3=O)cc2)cc1 (stereo not given)	-0.09	.
Cc1ccc(-c2nnc(NCc3ccco3)c3ccccc23)cc1C	.	-0.6
C/C(Cn1c(=O)oc2ccccc21)=N\OC(=O)c1ccc(Cl)cc1	-1.2	1.4
O=S(=O)(c1ccc(-c2csnn2)cc1)N1CCOCC1	0.52	-1
N=c1sccn1CC(=O)NC(=O)NC1CCCC1	.	-1.4
CCN(CC)c1ccc(NS(=O)(=O)c2ccc(F)cc2)cc1	-0.13	0.5
O=C(c1ccc(CS(=O)Cc2cccc(Cl)c2)o1)N1CCN(Cc2ccccc2)CC1 (stereo not given)	-0.46	-0.8
CC(=O)OCc1nc2ccccc2s1	0.5	1.1
Cc1cccc(-c2nc3ccccc3o2)c1	.	-0.3
Clc1ccc2nc(NCCN3CCOCC3)nc(-c3ccccc3)c2c1	0.64	.

Single records, as listed above. Order of values: CapD inh, AID504770
`CC(=O)Nc1ccc(NC(=O)CSC2=C(C#N)C(c3ccc4c(c3)OCO4)C3=C(CCCC3=O)N2)cc1` (stereo not given) is entered as 0.43, .
`O=S(=O)(c1ccc(-c2csnn2)cc1)N1CCOCC1` is entered as 0.52, -1
`CCOC(=O)CN(C)c1nc(-c2ccc(OC)c(OC)c2)cs1` is entered as -0.35, -0.1
`CCN(CC)c1ccc(NS(=O)(=O)c2ccc(F)cc2)cc1` is entered as -0.13, 0.5
`CCCCCOC(=O)CSc1nc(N)c2c3c(sc2n1)COC(C)(C)C3` is entered as 0.56, .

Remaining list, next part:
SMILES	CapD inh	AID504770
COCCN=Cc1cc(Br)cc(Br)c1O	.	-0.7
O=C(c1ccccc1)c1cccn1CC(=O)N1CCCCCC1	0.14	0.25
COc1ccc(C2C(C(C)=O)=C(C)N=c3s/c(=C/c4ccc(-c5ccc([N+](=O)[O-])cc5)o4)c(=O)n32)cc1 (stereo not given)	0.3	.
COC(=O)C1=C(C(=O)OC)SC(=C2C(=S)C(C)(C)N(C(=O)C(C)C)c3ccc(C)cc32)S1	0.34	.
Cc1cc(C)nc(NS(=O)(=O)c2ccc(NC(=O)c3ccccc3Br)cc2)n1	0.33	.
CC1CCCCC1NC(=O)COC(=O)c1ccc(O)cc1 (stereo not given)	.	0
CCOC(=S)SCc1cn2cccnc2n1	-0.41	-0.4
CCCSCCCn1cnc2c([nH]c3cc(OC)ccc32)c1=O	0.54	0.85
COC(=O)c1ccccc1NC(=S)N1CCCCC1	-0.26	0.1
CCCCC(C(=O)Nc1ccccc1)N1C(=O)C2C3c4ccccc4C(c4ccccc43)C2C1=O (stereo not given)	0.47	.
CC(C(=O)NCC1CCCCC1)N1CCN(c2ccc(F)cc2)CC1 (stereo not given)	.	-0.4
Cc1sc2nc(CSCC(=O)NC(=O)c3cccn3C)[nH]c(=O)c2c1C	.	0.25
COc1ccc(-c2nc3c(n2O)CCC/C3=N\O)cc1	15	-1.1
O=S(=O)(c1ccc(N=C2NN=C(c3cc(F)ccc3F)CS2)cc1)N1CCOCC1	.	-0.7
O=c1ccn(-c2ccc(F)cc2)nc1-c1ccn[nH]1	11	1.2
Cc1occc1C(=O)N=Nc1c(O)n(Cc2ccccc2Cl)c2ccccc12	.	0.9
CCOC(=O)c1c(C(=O)CSc2ncc(-c3ccc(F)cc3)n2Cc2ccco2)sc2c1CCCC2	.	-0.25
Cc1cccc(NC(=O)/C=C/c2ccccc2)c1	26	-0.7
CC(NC(=O)OCCCc1ccncc1)C(=O)OCc1ccc([N+](=O)[O-])cc1 (stereo not given)	1.1	.
CC1CCN(C(c2cccs2)c2nnnn2Cc2ccccc2)CC1 (stereo not given)	.	0.05
OC(c1ccccc1)(c1ccccc1)C1CCN(C(=S)NCc2ccco2)CC1	-0.26	1.5
Cc1cc(O)cc2occ(-c3cnn(-c4ccccc4)c3)c(=O)c12	0.14	-0.15
COc1cc(OC)nc(CSCCNC(=O)c2c(OC)cccc2OC)n1	-0.52	.
c1cncc(CSc2ccc3nnc(-c4cccnc4)n3n2)c1	.	1.9
COc1cc(C=C2C(=O)NC(=O)NC2=O)ccc1OCCSc1ccc(C)cc1	-0.4	.

2 entries from above, as a markdown table.
| smiles | CapD inh | AID504770 |
| --- | --- | --- |
| Cc1cccc(NC(=O)/C=C/c2ccccc2)c1 | 26 | -0.7 |
| COc1cc(OC)nc(CSCCNC(=O)c2c(OC)cccc2OC)n1 | -0.52 | . |

Molecules shown so far that contain a COOH group (2):
SMILES	CapD inh	AID504770
O=C(O)CC(c1ccccc1)N1C(=O)c2ccccc2C1=O (stereo not given)	-0.22	0.25
O=C(O)C1=Cc2sc3c(c2CS1)CCCC3	2.4	-0.2

Continuation.
SMILES	CapD inh	AID504770
FC(F)(F)c1cccc(-n2cc(-c3ccccc3)c3c(NCCCn4ccnc4)ncnc32)c1	0.26	.
COc1ccc(/C=C/C(=O)N2CCCCC2)cc1OC	.	0
CCN(CC)C(=O)c1ccc2c(c1)N(Cc1ccccc1)C(=O)c1ccccc1S2(=O)=O	-2.2	0.65
COC(=O)C(Cc1ccccc1)NC(C)=O (stereo not given)	0.055	-0.75
C=CCn1c(CNC(=O)c2cccc(C)c2)nc2ccccc21	2.9	0.4
CN(C)/C=N/c1nc2ccccc2s1	.	-0.2
COC(=O)C1=CNC=C(C(=O)OC)C1c1cccc(OC)c1	78	1.9
CCOc1ccc(S(=O)(=O)N2CCc3ccccc3C2)cc1	-0.005	-0.4
CC(C)N(CCC#N)C(=S)Nc1ccc(F)cc1	-0.085	.
CCN(CC)c1ccc2cc(-c3ncc(-c4ccc(F)cc4)o3)c(=O)oc2c1	-2.5	-0.1
CCN(CC)c1ccc(C2Nc3ccc4ccccc4c3C3=C2C(=O)CC(C)(C)C3)c(OCc2ccc(Cl)cc2Cl)c1 (stereo not given)	3.1	.
O=C(CC1(O)C(=O)N(Cc2ccc(Cl)cc2)c2ccccc21)c1ccc2c(c1)OCCO2 (stereo not given)	0.09	.
O=C(N[C@@H](Cc1ccccc1)C(=O)OCc1ccccc1)c1ccco1	.	0.2
O=C(CCSc1ccccn1)c1ccc(Cl)cc1	-1.4	0.15
COc1ccc(/C=C(\NC(=O)c2ccccc2)C(=O)Nc2ccc(F)cc2)cc1OC	0.38	0.4
COCCCN1C(=O)/C(=C/c2c(NCCCn3ccnc3)nc3ccccn3c2=O)SC1=S	0.49	.
COC(=O)c1nc2n(n1)C(c1cc(OC)c(OC)c(OC)c1)C=C(c1cccc(OC)c1)N2 (stereo not given)	-0.04	2.3
O=c1[nH]cnc2scc(-c3cccs3)c12	1.4	1.3&-0.25
O=C(Cc1ccccc1)NCc1nc2ccccc2[nH]1	-0.22	1.3
CCc1onc(C)c1C(=O)Nc1ccc2c(c1)OCO2	.	-0.2
CC(C)(C)S(=O)(=O)c1ccc(C(=O)O)s1	-0.49	-0.4
N#CC1=C(N)Oc2c(c(=O)oc3ccccc23)C12C(=O)Nc1ccccc12 (stereo not given)	.	2.8
COc1ccccc1N1CCN(/C=C2/SC(=S)NC2=O)CC1	.	0.25
COCCn1c(SCC(=O)C(F)(F)F)nnc1-c1ccncc1	.	0
COc1ccc(-c2ccc(/C=C3\C(=O)C(C(C)C)CCC3C)cc2)cc1 (stereo not given)	-0.06	.
SMILES	CapD inh	AID504770
CCc1cc2c(SCC(N)=O)ncnc2s1	-0.29	1.7
Cn1nc(-c2ccc(C(=O)Nc3ccc(Cl)cc3)s2)cc1C(F)(F)F	-0.29	0.05
CN(C)S(=O)(=O)c1ccc(N2CCCC2)c(C(=O)OCC(=O)NCc2ccc3c(c2)OCO3)c1	.	0.3
O=C(CSc1ccccc1)Nc1ccc(F)c(F)c1F	0.17	.
COc1ccc(C(=O)OCc2ccccc2F)c(OC)c1OC	.	-0.05
O=C(Oc1ccc(NC(=O)c2cc(S(=O)(=O)N3CCOCC3)ccc2Cl)cc1)c1cccs1	-0.31	.
O=C(CSc1ccc(Cl)cc1)N=C1NC(=O)CS1	-1.5	1.5
O=C(COc1ccccc1Cl)N/N=C/c1ccc(F)cc1Cl	-0.2	.
COc1ccc(CNn2c(C)n[nH]c2=S)cc1	0.35	0.8
CSc1nnc(NC(=O)c2ccc(F)cc2)s1	-0.67	-0.9
CN(C)C(=O)Cn1nc(-c2ccccc2)c2ccccc2c1=O	.	0.3
CCOc1ccc(CNc2ccc(CNc3ncn[nH]3)cc2)cc1	-1.3	-0.05
CCN(CC)C(=O)CSc1nc2ccc(N3CCOCC3)cc2c(=O)n1Cc1ccc2c(c1)OCO2	0.14	0.45
C=CCSc1ncc(-c2ccc(Cl)cc2)[nH]1	-0.28	-0.55
CCOc1ccc2ncc(C(=O)c3ccc(OC)cc3)c(N3CCN(C)CC3)c2c1	.	-0.6
N#Cc1c(-c2ccc3c(c2)OCO3)csc1N	-0.04	0.45
COc1cc(/C=N/NC(=O)C(C)Oc2ccc(Cl)cc2C)ccc1OC(=O)OC(C)(C)C (stereo not given)	-0.68	.
O=C(O)c1ccc(N2CC3CC(C2)c2cccc(=O)n2C3)c(NS(=O)(=O)c2cccc(C(F)(F)F)c2)c1 (stereo not given)	0.69	-0.75
CCN(CC)C(=O)C1CCCN(c2ncnc3c2c(-c2ccccc2)cn3-c2ccc(F)cc2)C1 (stereo not given)	0.89	.
O=C(Cn1c(=O)n(CC(=O)NC2CCCC2)c(=O)c2ccccc21)Nc1ccc(Br)cc1	-0.21	-0.6
COC(=O)Cc1nc(Nc2cccc(C(F)(F)F)c2)c2c(C)c(C)sc2n1	0	.
Cn1c(=O)n(C)c2cc(/C=N/NC(=O)Nc3ccccc3)ccc21	1.4	0.3
